SARS PLpro yeast: inhibitors of SARS-CoV papain-like protease in yeast | S. cerevisiae expressing SARS-CoV PLpro, growth rescue; control for the full effect not named in the record | Potency, µM (top dose mostly 32.9 µM), without a hit: at the highest dose activity, positive = growth rescue | 330,000 tested, 0.19% active; active means well fitted rising curve with a large enough effect; inconclusive means small, poorly fitted or top-dose-only effect; inactive means no such curve, though single readings can be large or run the other way; note: 0% is about no effect; nearly all actives have a fitted effect of over 55% in size; growth read by luminescence after 48 h
RE007 growth inh: less growth of the S. pombe RE007 Vpr strain. S. pombe RE007 Vpr strain, BacTiter-Glo ATP luminescence, 24 h; control for the full effect not named in the record. Potency, µM (series often up to 92.2 µM), inactives show at the top dose activity change, negative = less growth. 360,000 tested, 0.21% active. AID 651644; active = well fitted falling curve with a large enough effect; inconclusive = small, poorly fitted or top-dose-only effect; inactive = no such curve, though single readings can be large or run the other way;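 note: % is set by controls: 0 for no effect and ±100 for the full control effect; nearly all actives have a fitted effect of over 50% in size; the assay follows cell death caused by Vpr and the record does not say whether a fall means rescue or toxicity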
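Fission yeast RE007 carrying one integrated HIV-1 vpr copy, seeded at OD 0.01 in PMG+AL medium with 23 nL pinned compound. Grown 24 h at 30 degrees; viability read by BacTiter-Glo luminescence after 5 min.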
StopGo reporter: FMDV 2A StopGo reporter, luciferase signal; Potency, µM (highest dose often 57.9 µM), for inactives: at the highest dose signal change, negative = less light; human cells with a luciferase reporter of 2A StopGo recoding; control for the full effect not named in the record; 410,000 tested, 1.2% active; active = well fitted falling curve with a large enough effect; inconclusive = small, poorly fitted or top-dose-only effect; inactive = no such curve, though single readings can be large or run the other way; tested in HEK293T cells; note: % is set by controls: 0 for no effect and ±100 for the full control effect; nearly all actives have a fitted effect of over 45% in size; luciferase light after 4 h
Numbers without * were called inactive; u = inconclusive; [ ] = dose if it differs, or a comment. Potency is the fitted concentration of half-maximal effect.

#	molecule	SARS PLpro yeast	RE007 growth inh	StopGo reporter
1	O=C(Nc1ccc(F)cc1)C1CCN(C(=O)c2ccc(F)cc2)CC1	-8%	-1%	-12%
2	COc1cc(F)c(C2=CC(=O)C[C@H](c3ccc(Cl)cc3)C2)cc1F	7%	4%	0%
3	Cc1cc(C)cc(NC(=O)COC(=O)Cn2cnc3c2c(=O)n(C)c(=O)n3C)c1	6%	4%	0%
4	CCN(CC(=O)NCc1cccs1)CC(=O)Nc1ccc(C(N)=O)cc1	1%	3%	-13%
5	Cc1cccc(N2CC(C(=O)NCc3ccco3)CC2=O)c1C (stereo not given)	0%	7%	-9%
6	O=C(O)CCN1C(=O)C2C3CC(C2C1=O)C1C(c2ccccc2)c2sc(=O)[nH]c2SC31 (stereo not given)	3%	2%	10%
7	CC(C)N(CC(N)=O)c1ccc(S(=O)(=O)N2CCCC2)cn1	-1%	14%	-15%
8	O=C(C1CCN(S(=O)(=O)c2ccccc2)CC1)N1CCN(c2ccccc2F)CC1	-10%	5%	-12%
9	Cc1ccc(S(=O)(=O)CCC(=O)Nc2nc(-c3ccccn3)cs2)cc1	4%	-3%	u
10	O=C(Cc1cccs1)Nc1cc(S(=O)(=O)N2CCCCC2)ccc1Cl	1%	4%	3%
11	COc1ccc(CNC(=O)COC(=O)c2ccc3ncsc3c2)cc1OC	-5%	6%	u
12	O=C(OCc1nnc(-c2ccccc2)o1)C1CC(=O)N(CCc2ccccc2)C1 (stereo not given)	-1%	6%	24%
13	S=C(Nc1ccc(N2CCOCC2)cc1)Nc1ccc2snnc2c1	-5%	-1%	11%
14	CN(C(=O)COC(=O)Cc1ccccc1[N+](=O)[O-])C1CCS(=O)(=O)C1 (stereo not given)	-4%	-1%	1%
15	O=C1C=C(c2cccc(CO)c2)C[C@@H](c2ccc3c(c2)OCO3)C1	5%	8%	-7%
16	COC(=O)c1ccc(NC(=O)c2cc(-c3ccncc3)nc3ccccc23)cc1	-3%	-6%	-16%
17	Cc1occc1-c1nnc(SCC(=O)c2c(N)n(C3CC3)c(=O)[nH]c2=O)n1C	1%	-14%	-6%
18	Cc1cc(C)n2nc(C(=O)OCC(=O)NCc3ccc(F)cc3)nc2n1	-1%	7%	1%
19	COc1ccc(CNC(=O)CN(c2ccccc2OC)S(=O)(=O)c2cccs2)cc1	2%	-8%	-10%
20	O=C(CCCOC(=O)c1cccnc1Cl)c1ccc(Br)cc1	-2%	28%	3%
21	COc1ccc(NC(=O)CSc2nnc(CNC(=O)c3ccco3)o2)cc1	4%	5%	-21%
22	COc1ccc(NC(=O)CNC(=O)Cc2cccc3ccccc23)cc1	-6%	1%	-20%
23	CCn1nnnc1SCC(=O)N1c2ccccc2NC(=O)CC1C (stereo not given)	-8%	u	-10%
24	NS(=O)(=O)c1ccc(N2CCN(C(=O)c3ccco3)CC2)nc1	-1%	-7%	7%
25	COc1ccc(-c2oc(=O)c3cc(OC)c(OC)cc3c2C#CCCO)cc1	-5%	-19%	0%

Single values from the results shown.
Reading of no. 21 in RE007 growth inh: 5%
Reading of no. 19 in RE007 growth inh: -8%
Reading of no. 14 in RE007 growth inh: -1%
Reading of no. 24 in RE007 growth inh: -7%

Next section.
#	molecule	SARS PLpro yeast	RE007 growth inh	StopGo reporter
26	CCCCCCCC(=O)C(C)C(=O)N(C)[C@H](Cc1ccc(OC)cc1)C(=O)N(C)[C@H](C(N)=O)C(C)C (stereo not given in full)	18%	9%	0%
27	C[C@H](CO)N1C[C@H](C)[C@H](CN(C)S(=O)(=O)c2ccccc2)Oc2ccc(NC(=O)NC3CCCCC3)cc2CC1=O	3%	-6%	-8%
28	CCCN(C(=O)c1nc2nccc(C)n2n1)c1c(N)n(Cc2ccccc2)c(=O)[nH]c1=O	2%	-8%	-5%
29	COc1ccc(-c2noc(CCC(=O)N3CCN(c4ccccc4C)CC3)n2)cc1	-20%	5%	-9%
30	CCc1cccc(N(C(=O)c2csnn2)C(C(=O)NC(C)(C)CC)c2ccccn2)c1 (stereo not given)	0%	1%	6%
31	CC1=C(C(=O)OCCOc2ccccc2)C(c2coc3ccccc3c2=O)C2=C(CCCC2=O)N1 (stereo not given)	-2%	7%	2%
32	COc1ccc(-c2cc(C(=O)NCCCN3CCCC3=O)c3ccccc3n2)cc1OC	-10%	-3%	-14%
33	Cc1ccc(S(=O)(=O)N2CCN(C(=O)CCC(=O)Nc3ccc(F)cc3F)CC2)cc1	3%	9%	52%[activator]
34	CC(C)N1C(=O)C(=O)N(CC(=O)N2CCc3ccccc32)C1=O	-3%	-17%	-1%
35	Cc1ccc(CNCc2cc(Cl)ccc2O)cc1	3%	-9%	14%
36	O=C(CSc1nccc(=O)[nH]1)NCc1ccc(Cl)cc1	-5%	2%	-3%
37	COC(=O)c1ccc(-n2c(C)cc(C(=O)CCl)c2C)cc1	-4%	25µM*	32µM*
38	CCN(CCNC(=O)C1CCC(=O)N1Cc1ccc(C)cc1)c1ccccc1 (stereo not given)	1%	6%	7%
39	Cc1cc(C)cc(NC(=O)CSc2nc3nc(C)cc(C)c3c(=O)[nH]2)c1	9%	-1%	-24%
40	CC(C)Cn1c(N)c(C(=O)CSc2nncs2)c(=O)n(C)c1=O	-2%	14%	-12%
41	O=C(O)c1cccc(N/N=C(\N=Nc2ccccc2)c2ccccc2)c1	8%	4%	29%
42	C[C@@H](C(=O)OCn1nnc2ccccc2c1=O)N1C(=O)C2CCCCC2C1=O (stereo not given in full)	5%	2%	-10%
43	C[C@@H]1COC(=O)[C@@H](CC(=O)OC(C)(C)C)C/C=C\C[C@@H](CC(=O)N[C@@H](CO)Cc2ccccc2)C(=O)N1	4%	-2%	-1%
44	O=C(COC(=O)c1cc(=O)[nH]c2ccccc12)NCc1ccccc1Cl	1%	12%	-9%
45	COc1ccc(S(=O)(=O)c2nnn(-c3ccccc3Cl)c2N)cc1	3%	-9%	-19%
46	CN(Cc1ccccc1)C(=O)c1ncn(C)c1C(=O)N(C)Cc1ccccc1	-1%	-12%	-6%
47	Cc1ccc(CNC(=O)Cn2ccc(NC(=O)OCc3ccccc3)nc2=O)o1	2%	7%	-11%
48	O=C(Nc1ccc(SC(F)F)cc1)c1ccc2c(=O)n3c(nc2c1)CCC3	4%	-22%	u
49	CCOC(=O)[C@H]1[C@H]2COc3ccc(Cl)cc3[C@@H]2N2C(=O)c3ccc(Cl)cc3NC(=O)[C@@]12C	-2%	-4%	u
50	CCCN=C1N(CC)C[C@@H]2[C@@H]3C(=O)N(Cc4ccccc4)C(=O)[C@@H]3[C@](C)(C(=O)OC)N12	1%	0%	0%
51	CCCCCCCNC(=O)C1(CC2CC(c3cccc(Br)c3)=NO2)CCN(C(=O)CCCCCBr)CC1 (stereo not given)	2%	1%	-22%
52	CCN1C[C@@H]2[C@@H]3C(=O)N(Cc4ccccc4)C(=O)[C@@H]3[C@](CC)(C1=O)N2C(=O)c1ccc(C(F)(F)F)cc1	-9%	4%	-16%
53	Cc1ccc(-c2nn(-c3ccccc3)cc2C(=O)N2CCN(C3CCS(=O)(=O)C3)CC2)cc1 (stereo not given)	5%	14%	16%
54	Cc1ccc(NC(=O)CN(C)C(=O)c2cc(-c3cccs3)nn2-c2ccccc2)cc1	0%	-1%	-30%
55	Cc1ccc(S(=O)(=O)N2C[C@@H]3CCCC[C@@H]3[C@@H](C)[C@H]2CC(=O)c2ccccc2)cc1	4%	4%	6%
56	CSCCC(NC(=O)COc1ccccc1)C(=O)OCCOc1ccc(C)cc1 (stereo not given)	-10%	u	-2%
57	C[C@H](CO)N1C[C@H](C)[C@@H](CN(C)Cc2ccccc2)Oc2c(NS(=O)(=O)c3ccccc3)cccc2C1=O	-16%	-2%	71%[activator]
58	COc1ccc([C@H]2CC(=O)C=C(/C=C/c3ccccc3)C2)cc1OC	-4%	-20%	u
59	Nc1ncnc2c1ncn2[C@@H]1O[C@H](CNC(=O)[C@@H]2CCC(=O)N2)[C@@H](O)[C@H]1O	0%	-8%	-21%
60	Cc1nc(SCC(=O)NCc2ccc3c(c2)OCO3)nc(C)c1C	-3%	4%	-6%
61	CCOC(=O)C1=C(COC(=O)CCOc2cc(C)ccc2C)NC(=O)NC1C (stereo not given)	1%	-5%	-24%
62	CCOc1ccccc1NC(=O)NC(=O)N(C)S(C)(=O)=O	-3%	9%	-21%
63	Cc1cccc(C)c1NC(=O)CN(C)C(C)C(=O)NCC(=O)Nc1ccc(F)c(F)c1F (stereo not given)	-3%	2%	0%
64	Cc1csc(=O)n1CC(=O)OCC(=O)NNC(=O)c1ccc(Cl)cc1	2%[6.58 µM]	22%	-26%
65	CCc1nnc(NC(=O)C2CCCN(C(=O)c3ccc(Cl)cc3)C2)s1 (stereo not given)	-2%	-27%	31%[activator]
66	COc1ccc([C@H]2CC(=O)C=C(c3ccc4[nH]ccc4c3)C2)cc1OC	-3%	3%	-12%
67	Cn1ccc2ccc(C3=CC(=O)C[C@H](c4ccc(F)cc4)C3)cc21	-1%	-4%	25%
68	O=C1CCC/C=C\C[C@@H](CC(=O)N(CCO)Cc2ccccc2)C(=O)N[C@H](Cc2c[nH]c3ccccc23)CO1	-2%	-8%	-9%
69	CCCCn1c(N)c(N(C)C(=O)c2ccccc2Oc2ccccc2)c(=O)[nH]c1=O	-4%	17%	26%
70	CCOc1cc(C(=O)OCC(=O)c2cc(C)n(CC3CCCO3)c2C)ccc1OCC(=O)N1CCOCC1 (stereo not given)	-4%	6%	43%[activator]
71	O=C1NC[C@H](CC2CCCCC2)N(CC2CCCCC2)C1=O	3%	-6%	-7%
72	N#Cc1ccc(CN2CCN(C(=O)CCNS(=O)(=O)c3ccc(F)c(Cl)c3)CC2)cc1	-3%	5%	0%
73	CC(CCc1ccccc1)NC(=O)COC(=O)c1ccccc1O (stereo not given)	-2%	0%	49%[activator]
74	N#Cc1ccccc1OCC(=O)OCC(=O)NC1CCS(=O)(=O)C1 (stereo not given)	-12%[6.58 µM]	-3%	-1%
75	CCOc1ccc(NC(=O)CN(C)C(=O)CCN2C(=O)C3CC=CCC3C2=O)cc1OCC (stereo not given)	-6%	-10%	-23%

Three entries drawn at random from the list so far:
#	molecule	SARS PLpro yeast	RE007 growth inh	StopGo reporter
56	CSCCC(NC(=O)COc1ccccc1)C(=O)OCCOc1ccc(C)cc1 (stereo not given)	-10%	u	-2%
71	O=C1NC[C@H](CC2CCCCC2)N(CC2CCCCC2)C1=O	3%	-6%	-7%
65	CCc1nnc(NC(=O)C2CCCN(C(=O)c3ccc(Cl)cc3)C2)s1 (stereo not given)	-2%	-27%	31%[activator]

Remaining list, next part.
#	molecule	SARS PLpro yeast	RE007 growth inh	StopGo reporter
76	COc1cc2cc(CCOC(=O)c3ccc(C#N)cc3)oc(=O)c2cc1OC	-3%	-14%	-20%
77	CNC[C@H]1Oc2c(NS(=O)(=O)c3ccc(F)cc3)cccc2C(=O)N([C@H](C)CO)C[C@@H]1C	-10%	-2%	-1%
78	CCN(CC(=O)NCc1ccc(F)cc1)C(=O)C(C)Oc1cccc(Cl)c1 (stereo not given)	0%	7%	-2%
79	O=C(Nc1nnc(-c2ccco2)o1)c1ccc(S(=O)(=O)N2CCOCC2)cc1	-3%	-11%	5%
80	C/C(=N\OCC(=O)OCC(=O)N(C)c1ccccc1)c1ccc2c(c1)OCO2	4%	2%	-2%
81	CC1Cc2ccccc2N1S(=O)(=O)c1cccc(C(=O)NCc2ccccn2)c1 (stereo not given)	5%	17%	-15%
82	CCCCN(C(=O)CSc1nnc(-c2ccccc2)o1)c1c(N)n(CCC)c(=O)[nH]c1=O	-2%	3%	5%
83	C[C@@H]1CC(=O)[C@H]2CC(CO)=CCC[C@@H]2[C@@]1(C)CC/C(=C/CO)CO	3%	2%	-17%
84	O=C(O)c1ccc2c(c1)ncn2C1CCCC1	5%	3%	42%[activator]
85	COc1ccc(/C=C/C(O)=C2/C(=O)NC3(C)CC2c2ccccc2O3)c(OC)c1OC (stereo not given)	3%	-1%	u
86	COC(=O)c1ccc(C)c(NC(=O)Cn2c(C)csc2=O)c1	0%	1%	-11%
87	Cc1ccc(O)c(C(=O)/C=C/c2ccc3c(c2)OCCO3)c1	-8%	-11%	-26%
88	COc1ccc(C)cc1N1CC(C(=O)Nc2ccccc2C(=O)NC2CC2)CC1=O (stereo not given)	-5%	1%	-12%
89	Cn1nnnc1SCC1=C(C(=O)O)N2C(=O)C(NC(=O)Cn3nc(C(F)F)cc3C3CC3)C2SC1 (stereo not given)	1%	2%	-10%
90	OC[C@@H](O)[C@@H](O)CO	6%	2%	-13%

Along the list, from the results shown:
Nos. 82–88 in RE007 growth inh: 3%, 2%, 3%, -1%, 1%, -11%, 1%

A run of entries taken from the entries so far, as a working copy:
#	molecule	SARS PLpro yeast	RE007 growth inh	StopGo reporter
76	COc1cc2cc(CCOC(=O)c3ccc(C#N)cc3)oc(=O)c2cc1OC	-3%	-14%	-20%
77	CNC[C@H]1Oc2c(NS(=O)(=O)c3ccc(F)cc3)cccc2C(=O)N([C@H](C)CO)C[C@@H]1C	-10%	-2%	-1%

Bioassay records: PubChem, National Center for Advancing Translational Sciences (NCATS)

The list is partial (hit frequency here may not be typical).
